Screening data (PubChem)
gsp ag – qHTS for Agonist of gsp, the Etiologic Mutation Responsible for Fibrous Dysplasia/McCune-Albright Syndrome: qHTS | gsp mutant cells, cAMP HTRF, 30 min; control for the full effect not named in the record | Potency, µM (highest dose often 76.9 µM), inactives show top-dose activation (cAMP increase), usual class: activators | 0.13% of 340,000 active; active = well fitted activation curve with a large enough effect; inconclusive = small, poorly fitted or top-dose-only effect, or another doubt; inactive = no such curve, though single readings can be large or run the other way; cell line not stated here;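 note: phosphodiesterase inhibitor Ro 20-1724 added with compounds to block cAMP breakdown; potency is the fitted concentration of half-maximal effect; nearly all actives have a fitted effect of over 60% in size; about a fifth of the inactives were tested at one dose only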
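Cells in DMEM/10% FBS with G418 were pretreated with compounds in DMSO plus […] (300 uM stock) for 30 min at 37C. cAMP was measured by HTRF (cAMP-d2 plus anti-cAMP antibody-K) after 30 min at room temperature.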
Sfp inh – qHTS Assay for Inhibitors of Bacillus subtilis Sfp phosphopantetheinyl transferase (PPTase). Biochemical Sfp PPTase activity, qHTS. Potency, µM, for the others: max response, negative = inhibition, most hits filed as inhibitors. 3.5% of 310,000 active. AID 1490, 2009; active = well fitted inhibition curve with a large enough effect; inconclusive = small, poorly fitted or top-dose-only effect, or another doubt; inactive = no such curve, though single readings can be large or run the other way;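 note: the enzyme is Sfp with the accession as filed and its product quenches rhodamine fluorescence; potency is the fitted concentration of half-maximal effect; 0% = enzyme reaction without inhibitor and -100% = no enzyme wells; top concentration of the series not given in the record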
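With Hepes-Na pH 7.6 buffer containing 10 mM MgCl2, Sfp (15 nM) modified BHQ-2-YbbR (12.5 uM) using rhodamine-CoA (5 uM). Two reads 30 minutes apart at 525/598 nm yielded each well's rate.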
gsp antagonist – qHTS for Antagonists of gsp, the Etiologic Mutation Responsible for Fibrous Dysplasia/McCune-Albright Syndrome: qHTS; gsp-mutant cells, cAMP HTRF, 30 min; control for the full effect not named in the record; Potency, µM (titrated, usually from 76.9 µM), for inactives: at the highest dose activity change, negative = inhibition, most hits filed as inhibitors; 0.4% of 340,000 active; AID 624288, 2012; active = falling curve of any shape with a large fitted effect; inconclusive = falling curve, mostly with a smaller effect; inactive = flat or rising curve; cell line not stated here;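 note: intracellular cAMP measured with PDE inhibitor Ro 20-1724 present during compound exposure; potency is the fitted concentration of half-maximal effect; % is set by controls: 0 for no effect and ±100 for the full control effect; nearly all actives have a fitted effect of over 65% in size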
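Cells in G418 medium, seeded 16-24 h, 37C; buffer exchange to DPBS + 1 mM CaCl2, 0.5 mM MgCl2, 0.05% BSA; cpds in DMSO + […] (300 uM stock), 30 min 37C; HTRF cAMP detection.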
Menin MLL FP FL – qHTS Assay for Inhibitors Targeting the Menin-MLL Interaction in MLL Related Leukemias: Competition With Fluorescein Labeled MLL-derived Peptide; Fluorescence polarization, fluorescein-MLL peptide displacement from menin; FP activity change, % at 61.4 µM; 290,000 tested, under 10 active; AID 1766, 2009; inconclusive = falling polarisation curve, or a change in total fluorescence; inactive = total fluorescence flat and polarisation flat or rising; no compound was filed as active; the % refers to the polarisation; negative = inhibition;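 note: % of control where 0% means no effect; inhibitors lower the polarisation; unlabelled MLL peptide was the positive control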
TRPML1 inh – qHTS for Inhibitors of the Human Mucolipin Transient Receptor Potential 1 (TRPML1). Mucolipin-1 (Homo sapiens), Q9GZU1. TRPML1-inducible cells, Ca2+ dye fluorescence, FDSS; hits give low values; inhibition of EC80 agonist-evoked calcium signal. activity change, negative = inhibition, % (concentration not given with the values). 0.02% of 390,000 active. AID 624415, 2012; in the data active means activity change below about -50%; inconclusive means about -30% to -50%; inactive means above about -30%;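 note: stimulus is agonist 54-4 at its EC80 concentration; % is set by controls: 0 for no effect and ±100 for the full control effect; compound concentration not given in the record; the text of the record puts the active cut at -80%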
Target sequence (Q9GZU1 whole entry, looked up): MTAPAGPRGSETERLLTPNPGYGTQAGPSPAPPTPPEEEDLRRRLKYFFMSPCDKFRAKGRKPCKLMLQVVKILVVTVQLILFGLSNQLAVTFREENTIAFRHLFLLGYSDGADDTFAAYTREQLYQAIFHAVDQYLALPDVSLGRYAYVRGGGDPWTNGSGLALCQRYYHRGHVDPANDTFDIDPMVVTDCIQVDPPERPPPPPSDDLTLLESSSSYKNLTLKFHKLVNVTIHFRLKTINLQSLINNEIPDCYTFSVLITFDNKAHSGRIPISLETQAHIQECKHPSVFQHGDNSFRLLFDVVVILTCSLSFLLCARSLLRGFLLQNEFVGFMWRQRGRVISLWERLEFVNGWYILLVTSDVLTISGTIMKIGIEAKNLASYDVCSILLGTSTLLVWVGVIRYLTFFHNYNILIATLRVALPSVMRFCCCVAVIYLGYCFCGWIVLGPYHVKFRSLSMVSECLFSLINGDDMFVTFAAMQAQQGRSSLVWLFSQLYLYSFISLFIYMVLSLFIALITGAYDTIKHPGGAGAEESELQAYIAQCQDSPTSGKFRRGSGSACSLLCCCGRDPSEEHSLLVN
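Calcium fluorescence in TRPML1-DL cells induced overnight with Tet: a 110 s read after compound pin addition, then a 110 s antagonist read after challenge with 54-4 at 4 uM final (EC80).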
ClpP mod – qHTS Assay for Activators of ClpP | ATP-dependent Clp protease proteolytic subunit (Bacillus subtilis (strain 168)), P80244 | purified B. subtilis ClpP, FRET peptide cleavage, 20 min | Potency, µM (doses to about 57.5 µM), for inactives: at the highest dose activity change, negative = active | 1.9% of 340,000 active | AID 651965, 2013; active = well fitted falling curve with a large enough effect; inconclusive = small, poorly fitted or top-dose-only effect; inactive = no such curve, though single readings can be large or run the other way; note: potency is the fitted concentration of half-maximal effect; the source files actives as falling curves though it sought activators and does not explain the sign; nearly all actives have a fitted effect of over 65% in size; many hits overshoot -100%
Target sequence (P80244 whole entry, looked up): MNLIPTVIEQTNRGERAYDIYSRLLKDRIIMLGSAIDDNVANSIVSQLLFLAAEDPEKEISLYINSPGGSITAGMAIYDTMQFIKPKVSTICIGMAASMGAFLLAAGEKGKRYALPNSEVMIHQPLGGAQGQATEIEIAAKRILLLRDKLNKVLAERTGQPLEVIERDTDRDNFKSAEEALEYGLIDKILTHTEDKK
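FRET quenching reversal measured ClpP activation: 10 microg/mL B. subtilis ClpP at pH 8 with the FRET-FV decapeptide, read at 430 nm after 320 nm excitation. The 20-min minus 0-min signal was scaled between DMSO/no-enzyme wells and ADEP (5.8 microM final).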
TRPV1 potentiator – HTS Assay for Compounds that Act as Potentiators of the Vanilloid Receptor 1 | Transient receptor potential cation channel subfamily V member 1 (Homo sapiens), Q8NER1 | TRPV1-expressing cells, Fluo-8 calcium influx, capsaicin EC20 potentiation; host cell line not named in the record; control for the full effect not named in the record | potentiation, % at 8.33 µM | 0.02% of 320,000 active | AID 540277, 2011; active means potentiation above 80%; inconclusive means 30% to 80%; inactive means below 30%; note: 0% is about no effect
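Cells expressing TRPV1 were dye-loaded with Fluo-8 and read kinetically: 10 s baseline, 3 min after compound (agonist portion), then 2 min after EC20 capsaicin (allosteric enhancer portion). Calcium-bound dye fluorescence at 480/520 nm.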
* = called active by the depositor; ? = inconclusive; / = no result given; [ ] = another dose, or the depositor's remark.

SMILES | gsp ag | Sfp inh | gsp antagonist | Menin MLL FP FL | TRPML1 inh | ClpP mod | TRPV1 potentiator
CCOC(=O)Cc1csc(N/C(=N/S(=O)(=O)c2cc(Br)ccc2OCC)c2ccccc2)n1 | 1% | 13% | -24% | 1.5 | 89 | ? | 5
COc1ccc(NC(=O)C2CCN(S(=O)(=O)c3ccc4[nH]c(=O)oc4c3)CC2)c(OC)c1 | ? | 6% | -17% | / | 20 | -0.8% | -10
O=C(Nc1ccc2oc(-c3cccc(F)c3)nc2c1)c1ccccc1F | ? | 8% | 1% | 0.6 | -29 | ? | 2
CC(C)CC1NC(=O)C(CC(C)C)N(CO)C1=O (configuration not stated) | -15% | / | 7% | / | -20 | -2.7% | /
O=C(Nc1nc2c(s1)CCCC2)C1COc2ccccc2O1 (configuration not stated) | -36% | -27% | -1% | 0.4 | 4 | 2.4% | -13
CCc1ccccc1NC(=O)c1cc(S(=O)(=O)N2CCCC2)c[nH]1 | 11% | 4% | 5% | 0.7 | 5 | -0.2% | 27
O=C(OCCN1CCOCC1)c1ccccc1Cl | -13% | / | 10% | / | 8 | / | /
Cc1ccc(S(=O)(=O)NCc2ccc(C(=O)N3CCN(Cc4ccccc4)CC3)cc2)cc1 | -10% | 2% | -4% | 5.6 | -3 | -0.7% | 4
O=C(O)CC(CC(=O)Nc1ccc(N2CCOCC2)cc1)c1ccccc1 (configuration not stated) | -22%[15.4 µM] | 15% | -4% | 4.5 | 6 | / | 8
CCN(CC)C(=O)C1CCCN(Cc2ccc3ccccc3c2)C1 (configuration not stated) | -48% | -4% | 10% | -2.7 | -11 | / | 12
CC1CCCN(C(=O)c2ccc(CNc3c(N4CCCCC4)c(=O)c3=O)cc2)C1 (configuration not stated) | -3% | 5% | 3% | -2.3 | -2 | -1.4% | 13
COc1cc(Nc2nc3ccccc3n3nnnc23)cc(OC)c1OC | 8% | 17% | -2% | ? | 4 | -18% | /
CCc1cc(C(=O)N(C)CC(=O)N(CC(C)C)c2c(N)n(CC(C)C)c(=O)[nH]c2=O)sc1C | -11% | 11% | -3% | 0.4 | 4 | 1.5% | 18
CC(=O)Nc1ccc(SCC(CC(C)C)N2CCN(CCc3ccccc3)CCC2=O)cc1 (configuration not stated) | / | -22% | / | 1.9 | 7 | / | /
O=C(Cn1c(=S)[nH]c2ncccc2c1=O)NCCc1ccccc1 | / | -3% | / | 6.8 | / | / | 14
CC(C)(C)N1CC23C=CC(C[C@@H]2C1=O)O3 (some centres not stated) | -7% | / | 18% | / | 1 | 0.2% | -18
Cc1ccc(S(=O)(=O)N2CCOCC2)cc1NC(=O)COC(=O)c1ccc(Cl)nc1 | 7%[15.4 µM] | / | -9% | / | 11 | / | /
COC(=O)c1sc2ncn(CC(=O)NCCc3ccc(OC)c(OC)c3)c(=O)c2c1C | -4% | 0% | -22% | 5.8 | 1 | -3.7% | 6
COc1ccc(CN(C)C(=O)CCc2ccc(S(=O)(=O)N3CCCCCC3)cc2)c(OC)c1 | -28% | / | ? | / | 31 | -2.2% | 30
CCOC(=O)c1ccc(Nc2nc(C)cc(C)c2C#N)cc1 | 15% | 4% | -3% | -0.7 | 14 | ? | -11
O=S(=O)(Nc1nc2ccccc2nc1Cl)c1ccccc1C(F)(F)F | ? | 3% | -8% | -0.7 | 5 | / | 11
CCCn1c(=O)c2ccccc2n2c(SCc3nnc(-c4ccccc4Br)o3)nnc12 | 11% | 19% | -11% | -0.2 | -8 | -1.1% | -10
COc1ccc(-n2cnnc2SCC(=O)Nc2cccc(S(N)(=O)=O)c2)cc1 | 1% | 3% | -8% | 4.7 | 11 | / | 21
Cc1sc2nc(SCC(N)=O)n(-c3ccccc3)c(=O)c2c1C | 3%[15.4 µM] | 10% | / | -1.3 | -7 | / | 0
Cc1c(Cl)c([N+](=O)[O-])nn1CC(=O)NCC(C)C | 5%[15.4 µM] | 12% | 1% | 0.3 | 12 | / | -1
COC(=O)c1ccccc1NC(=O)Nc1ccc(Cl)cn1 | -3%[15.4 µM] | 2% | -19% | -4.5 | 11 | / | 3
CCOC(=O)c1ccc(NC(=O)CCC(=O)NCc2ccco2)cc1 | -62%[inhibitor] | 10% | 5% | -0.1 | 1 | / | -6
CC1Cc2ccccc2N1Cc1cccc(S(=O)(=O)N(C)C)c1 (configuration not stated) | -4% | 8% | 0% | 2.4 | 8 | / | 8
CCOC(=O)C(NC(=O)N(C)C)(Nc1sc(C)c(CC)c1C#N)C(F)(F)F (configuration not stated) | -16%[15.4 µM] | 45µM* | 14% | 0.9 | 22 | -0.7% | 22
O=C(O)C1CC=CCC1C(=O)Nc1cccc(C(=O)N2CCCCC2)c1 (configuration not stated) | -9% | ? | 5% | 1.3 | 4 | -0.8% | ?
CC(C)Cn1c(/C=N/Nc2nc3ccccc3[nH]2)nc2ccccc21 | -2% | -11% | 0% | 5.8 | -3 | -7.5% | -9
COc1ccc2[nH]c(C(=O)NCCCN3CCCC3=O)c(C)c2c1 | -19% | 4% | 7% | / | -12 | / | -3
Cc1ccccc1-c1n[nH]c(=S)n1C | -9%[15.4 µM] | -14% | 15% | / | -12 | / | -4
CCCCn1c(N)c(N(C(=O)CSc2nncn2-c2ccccc2C)C2CCCC2)c(=O)[nH]c1=O | -4% | / | 10% | / | 41 | 0.7% | /
NC(CC(=O)OC1CCCCC1)C(=O)OC1CCCCC1 (configuration not stated) | -31%[inhibitor] | 3% | 11% | -3.3 | 26 | 2.4% | -13
COc1ccc2c(c1)C(NS(=O)(=O)OCC(Cl)(Cl)Cl)CCC2 (configuration not stated) | / | 1% | 7% | 2.4 | 4 | -0.2% | 8
COc1ccc(CNC(=O)C[C@H]2C[C@H](C(=O)N3CCOCC3)[C@@]3(C)c4[nH]c5cc(CCC(=O)N(C)C)ccc5c4CCN3C2=O)cc1OC | / | / | 8% | / | 4 | -1.8% | /
CC1=CCC(/C=N\Nc2nnc3c(n2)[nH]c2ccccc23)CC1 (configuration not stated) | / | -17% | / | 5.5 | / | / | 17
c1ccc(-c2ccccc2OCCCN2CCOCC2)cc1 | 7% | -8% | 1% | 1.3 | -14 | -2.7% | 4
O=C(COC(=O)/C=C/c1cccc(C(F)(F)F)c1)NC(c1ccccc1)c1ccccc1 | -4%[15.4 µM] | 7% | -1% | 5.6 | 5 | 1.5% | 1

Reformatted: results already given
Structure,gsp ag,Sfp inh,gsp antagonist,Menin MLL FP FL,TRPML1 inh,ClpP mod,TRPV1 potentiator
CCCCn1c(N)c(N(C(=O)CSc2nncn2-c2ccccc2C)C2CCCC2)c(=O)[nH]c1=O,-4%,/,10%,/,41,0.7%,/
NC(CC(=O)OC1CCCCC1)C(=O)OC1CCCCC1 (configuration not stated),-31%[inhibitor],3%,11%,-3.3,26,2.4%,-13
COc1ccc2c(c1)C(NS(=O)(=O)OCC(Cl)(Cl)Cl)CCC2 (configuration not stated),/,1%,7%,2.4,4,-0.2%,8

Additional compounds.
SMILES | gsp ag | Sfp inh | gsp antagonist | Menin MLL FP FL | TRPML1 inh | ClpP mod | TRPV1 potentiator
COc1ccc(Cc2nnc(NN)[nH]c2=O)cc1OC | -5%[15.4 µM] | 45µM* | 1% | -6.2 | -17 | 1.3% | -3
O=C(NC1=NCCS1)c1ccc(Cl)c(S(=O)(=O)N2CCOCC2)c1 | -4% | 8% | -10% | -0.5 | -4 | -2.5% | -10
COc1c(C)cc(C(=O)C2CCCN(C(=O)c3cc(C)n(C)n3)C2)cc1C (configuration not stated) | 28% | 2% | 5% | / | 22 | -2.3% | 6
C/C(N)=C(/C#N)C(=O)COC(=O)c1ccc(O)cc1 | 18% | 3% | 8% | 1.4 | 2 | 1.6% | 10
Cc1ccccc1C(=O)OCCN1CCOCC1 | -2% | 12% | 15% | -1.7 | 11 | 1.7% | 0
O=C(NNC(=O)c1ccccc1Br)c1cccs1 | 5% | 21% | 5% | -4.7 | 30 | / | 21
CCOC(=O)N1CCN(C(=O)C2CCCN(S(=O)(=O)c3ccc(F)cc3)C2)CC1 (configuration not stated) | ? | 4% | 6% | 6.3 | 4 | / | -1
CN(Cc1ccccc1)C1=CC(=[N+]2CCCCC2)CC(C)(C)C1 | 16% | -9% | -8% | 4.3 | 34 | -4.0% | -11
COc1ccc(-c2csc(NC(=O)c3ccc(N4C(=O)CCC4=O)cc3)n2)cc1OC | -3%[15.4 µM] | 3% | -12% | -1.0 | 0 | 14µM* | -2
O=C(c1ccc(CS(=O)(=O)c2ccc(Br)cc2)o1)N1CCN(c2ccccn2)CC1 | ? | 1% | -4% | -0.4 | -4 | -8.2% | 0
O=S(=O)(NCC1CCCO1)c1ccc(S(=O)(=O)N2CCCC2)cc1 (configuration not stated) | 2% | 11% | 3% | 5.0 | -4 | 1.2% | 11
O=S(=O)(Nc1ccc(S(=O)(=O)N2CCCCC2)cc1)c1ccc(Br)s1 | 32% | 12% | -19% | 1.7 | -6 | -0.8% | 5
COc1ccc(CNC(=O)CCN2C(=O)c3ccccc3C2=O)cc1 | 2% | 11% | 7% | 4.8 | / | 1.2% | -1
CCCCN1C[C@H](COC(=O)CCC)Oc2cccc(F)c2S1(=O)=O | / | / | 3% | / | 19 | -0.4% | /
Cc1ccc(S(=O)(=O)Nc2ccccc2-c2nc3ccccc3[nH]c2=O)cc1 | ? | / | -10% | / | -12 | -23% | 0
Cc1cccc(C2NC(=O)c3ccccc3O2)c1 (configuration not stated) | 1%[15.4 µM] | 2% | 8% | -6.1 | -3 | -10% | -2
